# Source: PubChem
# HPGD block: inhibitors of human 15-hydroxyprostaglandin dehydrogenase (HPGD) | P15428 | purified HPGD, NADH fluorescence kinetic, PGE2 substrate | Potency, µM, without a hit: at the top dose activity change, negative = inhibition, most hits filed as inhibitors | 4.3% of 150,000 active; active = well fitted inhibition curve with a large enough effect (not every such curve was filed as active); inconclusive = small, poorly fitted or top-dose-only effect, or another doubt; inactive = no such curve, though single readings can be large or run the other way;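 note: top concentration of the series not given in the record; plate controls included wells without enzyme; inactives centre near -10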
# Target sequence (P15428 whole entry, looked up): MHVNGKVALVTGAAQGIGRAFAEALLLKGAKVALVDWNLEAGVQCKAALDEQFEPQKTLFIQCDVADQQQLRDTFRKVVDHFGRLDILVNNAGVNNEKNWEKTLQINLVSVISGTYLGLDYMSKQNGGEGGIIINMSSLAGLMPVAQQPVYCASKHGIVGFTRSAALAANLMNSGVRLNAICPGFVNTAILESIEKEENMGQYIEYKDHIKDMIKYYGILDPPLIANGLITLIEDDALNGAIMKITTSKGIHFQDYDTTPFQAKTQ
#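 20 nM HPGD preincubated 15 min at room temperature with compound in 50 mM Tris-HCl pH 8, 0.01% Tween 20. Started with 1 mM NAD+ and 30 uM prostaglandin E2; NADH fluorescence (360/450 nm) read 5 times over 30-s intervals, last minus first.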
# * = called active by the depositor; ? = inconclusive; & = joins results of further samples. % is set by controls: 0 for no effect and ±100 for the full control effect; potency is the fitted concentration of half-maximal effect. Some of the compounds tested; rates above refer to the full screens.
SMILES,HPGD block
CSC(=NS(=O)(=O)c1ccc(C)cc1)SC,-14%
COC(=O)c1c(NC(=O)Cn2nc(C(F)F)cc2C(F)F)sc(C)c1C,28µM*
CC(C)NC(=O)c1c(O)c2ccccc2[nH]c1=O,-11%
Cc1nc2ccc(NC(=O)Cn3cnc4c3c(=O)n(C)c(=O)n4C)cc2s1,-9%
Cc1ccc([N+](=O)[O-])cc1-c1ccc(/C=C(\C#N)c2[nH]nc(N)c2C#N)o1,2.2µM*
NC(=O)c1cccn1Cc1ccccc1Cl,-19%
O=C(CSc1nc2ccccc2c(=O)[nH]1)c1ccccc1,13µM*
C/C(=C\C(=O)c1ccc(C)cc1)Nc1ccc(N2CCOCC2)cc1,-7%
Cn1nnc2c(N3CCCCC3)nccc21,-16%
Cc1cc(NCC2CCCO2)n2c(nc3ccccc32)c1C#N (configuration not stated),?
O=C(NC12CC3CC(CC(C3)C1)C2)N1CC2Cc3cccc(=O)n3C(C2)C1 (configuration not stated),-11%
Cc1ccc(N(C)C(=O)N2CCN(S(=O)(=O)c3ccc(C)cc3)CC2)cc1,-11%
CC(C)CN(CCCNC(=O)CC1Oc2ccccc2NC1=O)CC(C)C (configuration not stated),4%
CC1CCc2sc(C(=O)Nc3nnc(SCc4ccc(F)cc4)s3)cc2C1 (configuration not stated),?
CCCCc1nc2c(c3c1C[C@H](C)OC3)CN(C(=O)Nc1cccc(C#N)c1)CC2,-4%
O=C(C1CC(c2ccccc2O)=NO1)N1CCc2ccccc2C1 (configuration not stated),16µM*
COc1ccc(NC(C)=O)cc1NC(=O)CN1CCN(CC(=O)Nc2ccccc2Cl)CC1,-5%
COc1ccc(N2CCN(C(=O)c3ccc(NS(=O)(=O)c4ccc(F)c(F)c4)cc3)CC2)cc1,-24%
CCOC(=O)CN(Cc1ccccc1)S(=O)(=O)c1ccc(NC(C)=O)cc1,-20%
CCCSc1ncnc2c1oc1ccccc12,20µM*
CC(=O)c1cccc(NC(=O)C2CCCN(S(=O)(=O)c3cccc4cccnc34)C2)c1 (configuration not stated),-6%
O=C(NCCCN1CCCCCC1)c1ccc(N2CCCC2=O)cc1,6%
CCn1c(=O)n(CC(=O)Nc2cc(OC)ccc2OC)c(=O)c2ccccc21,0%
Clc1ccc(OCCOCCN2CCc3ccccc3C2)c(Cl)c1,-3%
Cc1cc(C)nc(N2CCC(C(=O)Nc3cccc(C(F)(F)F)c3)CC2)n1,-8%
# Next part
SMILES,HPGD block
Cc1nn(Cc2ccc(F)cc2)c2sc(C(=O)Nc3nccs3)cc12,-21%
COc1cccc(C(C(=O)NC2CCCC2)N(C(=O)c2ccco2)C2CC2)c1OC (configuration not stated),-13%
CCOC(=O)c1c(NC=O)sc2c1CCC2,-6%
CCn1cc(-c2cc(C(=O)O)c3ccccc3n2)c(C)n1,?
CCN(CC)CCCN1C(=O)c2oc3ccccc3c(=O)c2C1c1cc(OC)ccc1OC (configuration not stated),-15%
Cc1ccc(C(=O)c2cc([N+](=O)[O-])ccc2N2CCCCC2)c(C)c1,0%
CCCC(=O)NC(=S)Nc1cccc(Cl)c1N1CCCCC1,-15%
O=C(O)CSCCCC(=O)Nc1ccc(Br)cc1,-2%
CCc1cccc2c(C=C(C#N)C#N)cn(CC(=O)N3CCCC3)c12,1%
CCOC(=O)c1ccc(NC(=S)N(CCCN2CCCCCC2)Cc2ccco2)cc1,-5%
CN(C)c1ccc(C(CNS(=O)(=O)c2ccc3ccccc3c2)c2c[nH]c3ccccc23)cc1 (configuration not stated),-4%
COc1ccc(C(=O)CC(c2ccccc2)S(=O)(=O)c2ccc(C)cc2)cc1 (configuration not stated),-9%
O=C(O)CCCc1nc(-c2ccc(Cl)cc2)no1,-14%
COc1ccc(C(C(=O)NC2CCCC2)N(Cc2ccc(C)cc2)C(=O)c2ccn[nH]2)cc1OC (configuration not stated),-2%
CC(C)(C)OC(=O)NCCCC1=CC2=CC(=O)C(C)(OC(=O)c3cnc4ccccc4n3)C(=O)C2=CO1 (configuration not stated),-11%
Cc1ccc(SCCC(=O)NCc2ccco2)cc1,28µM*
S=c1[nH]nc(CSc2nc3ccccc3s2)n1C1CCCCC1,7.1µM*
CC(Nc1oc(-c2ccccc2)nc1-c1ccccc1)c1ccccc1 (configuration not stated),-8%&1%
CCN(Cc1ccccc1)C(=O)Cn1cc2c(n1)CCCC2,-3%
O=C1CC(c2ccc(Cl)c([N+](=O)[O-])c2)c2ccc3ccccc3c2N1 (configuration not stated),-18%
COc1ccc(-c2nc(CS(=O)CC(=O)NCc3cccnc3)c(C)o2)cc1 (configuration not stated),-9%
CCOC(=O)C=C1CCN(c2ncc(C(F)(F)F)cc2Cl)CC1,-11%
Cc1ccc(S(=O)(=O)N(C)c2ccc(C(=O)NCC3CCCO3)cc2)cc1 (configuration not stated),3.2µM*
CC(C)CN1CN(Cc2ccccc2)CNC1=S,3%
CN1C2C=C3C(C#N)=C(N)C(C#N)(C#N)C(c4ccc(Br)cc4)C3C1CC2 (configuration not stated),-1%

# Compounds from the list above containing a furan ring, fused or not:
SMILES,HPGD block
Cc1ccc([N+](=O)[O-])cc1-c1ccc(/C=C(\C#N)c2[nH]nc(N)c2C#N)o1,2.2µM*
CCCSc1ncnc2c1oc1ccccc12,20µM*
COc1cccc(C(C(=O)NC2CCCC2)N(C(=O)c2ccco2)C2CC2)c1OC (configuration not stated),-13%
CCOC(=O)c1ccc(NC(=S)N(CCCN2CCCCCC2)Cc2ccco2)cc1,-5%
Cc1ccc(SCCC(=O)NCc2ccco2)cc1,28µM*

# Continuation.
SMILES,HPGD block
Cc1ccc(C(=O)COC(=O)c2c(C)cc(=O)oc2C)cc1[N+](=O)[O-],-12%
CC12CCC(C(=O)NC3CCCC3)(CC1=O)C2(C)C (configuration not stated),-6%
COC(=O)c1cc2c(s1)-c1ccccc1OC2,?
COc1ccc(OC)c(-c2csc3nnc(SCC(=O)Nc4ccc(NC(C)=O)cc4)n23)c1,-10%
Cc1cc(C)n(-c2ccc(C(=O)Nc3ccc4c(c3)OCCO4)cc2)n1,-13%
COc1ccc(OCCC(=O)OCC(=O)NC(=O)NC(C)C)cc1,-10%
CCN(CC)c1cnn(C/C(=N\OC)c2ccc(Cl)cc2)c(=O)c1Br,-12%
Cc1ccc(Cn2nc(C)c(NC(=O)C3(C)CC3(Br)Br)c2C)cc1 (configuration not stated),-9%
O=C(Oc1ccc(-c2ccccc2)cc1)C1C2CCCCC21 (configuration not stated),0%
O=C(/C=C/c1ccccc1)NC(=S)NNC(=O)c1cccnc1,-20%
COc1ccccc1C(=O)Nc1nnn(C)n1,0%
CCCn1nnc(NC(=O)c2ccc(Br)o2)n1,-6%
C=C(C)Cn1c(SCCN2CCOCC2)nc2c1c(=O)[nH]c(=O)n2C,0%
O=C(N/C(=C/c1ccco1)C(=O)N1CCCC1)c1cccs1,-13%
O=C(NC1CCCCC1)C1CCN(c2cnccn2)CC1,-11%
Cn1c(=O)n(-c2ccc(Cl)cc2)c(=O)c2c3c(sc21)COC(C)(C)C3,-3%
O=C(c1ccco1)N1CCN(Cc2cccc(F)c2)CC1,2%
CCOC(=O)CSc1nnc(-c2ccc(OC)cc2)n1CC,-5%
CCc1cc2c(N3CCCCC3)ncnc2s1,-27%
C/C(=N\Nc1nc2ccccc2s1)c1cccs1,14µM*
COc1cc(F)ccc1S(=O)(=O)N1CCN(C23CC4CC(CC(C4)C2)C3)CC1,-9%
Cc1ccc(-c2nnc3c(C(F)(F)F)nc4ccccc4n23)cc1,?
OCCCNc1nc(-c2ccc(Cl)cc2)nnc1-c1ccccc1,-11%
CC(=O)c1ccc(NC(=O)CSc2nccn2CCc2ccccc2)cc1,-4%
COc1ccc(N2C(=O)/C(=C3/C=CC=CN3C)SC2=S)cc1,-6%

# 5 structures already listed, ordered by molar mass, smallest number first:
SMILES,HPGD block
CC12CCC(C(=O)NC3CCCC3)(CC1=O)C2(C)C (configuration not stated),-6%
O=C(C1CC(c2ccccc2O)=NO1)N1CCc2ccccc2C1 (configuration not stated),16µM*
O=C(NC12CC3CC(CC(C3)C1)C2)N1CC2Cc3cccc(=O)n3C(C2)C1 (configuration not stated),-11%
CC(C)CN(CCCNC(=O)CC1Oc2ccccc2NC1=O)CC(C)C (configuration not stated),4%
Cc1nc2ccc(NC(=O)Cn3cnc4c3c(=O)n(C)c(=O)n4C)cc2s1,-9%

# The list goes on:
SMILES,HPGD block
c1ccc(CCNc2ncnc3c2nnn3Cc2ccccc2)cc1,0%
CC[C@H]1C2=C3C(CC[C@H]4C(OC)OC[C@](C)([C@@H]34)N(C(=O)OC(C)(C)C)C2)C(CO)C1CO (some centres not stated),-3%
Cc1ccccc1-n1nc(-c2ccc(N)cc2)cc1N,-5%
COc1ccccc1CNC(=O)CCCNS(=O)(=O)c1cccc2nsnc12,-13%
Cc1ccc(-c2ccc(=O)n(CC(=O)NCCN3C(C)CCCC3C)n2)cc1 (configuration not stated),-10%
COC(=O)[C@@]1(Cc2ccc(F)cc2)[C@H]2c3cc(C(=O)N4CCCC4)n(Cc4ccc(Cl)c(C(F)(F)F)c4)c3C[C@H]2CN1C(=O)c1ccccc1,-14%
COc1ccc(CCNC(=O)c2oc3ccc(S(=O)(=O)N4CCOCC4)cc3c2C)cc1OC,-8%
O=C(CSC1=NCCS1)N1CCCC1,-13%
CCOC(=O)N1CCC(n2c(SCC(=O)c3ccccc3)nc3ccsc3c2=O)CC1,-1%
CC(=O)OC12CC3CC(C1)C(=NO)C(C3)C2,-5%
O=C(COC(=O)c1cc[n+]([O-])cc1)NCC12CC3CC(CC(C3)C1)C2,-1%
O=C(CCCOc1ccccc1)N1CCc2ccccc2C1,?
COC(=O)C1=C(C)NC(c2c(O)ccc3ccccc23)C(C(=O)OC)=C1C (configuration not stated),-13%
CCOC(=O)N1CCN(C(=O)c2ccc(N3CCCC3=O)cc2)CC1,-5%
COc1cc(C2NC(=O)C(C#N)=C(S)N2c2ccccc2)ccc1OC(C)C (configuration not stated),-13%
NCc1ccc(C(=O)O)cc1,-1%
OC1(c2cccc(C(F)(F)F)c2)CCN(c2ncnc3c2[nH]c2ccccc23)CC1,-4%
CN(CC(=O)O)S(=O)(=O)c1cccs1,-14%
CCCC12CN3CCN(CC(C3)/C1=N\NC(=O)c1ccc(C(C)(C)C)cc1)C2,1%
CN(C)CCCCNCCCNC(=O)/C=N\O,-9%
N#Cc1ccc(CN2CC3(CCN(C(=O)c4cnccn4)CC3)C2)cc1,-6%
C=CCn1c(-c2c[nH]c3ccccc23)n[nH]c1=S,-16%
CCc1ccccc1OCCCCN1CCCC1,1%
CCOc1ccc2[nH]c(=O)c(CN(CCc3ccccc3)C(=O)N3CCCC3)cc2c1,?
CC(C)N1C(=O)CCC1C(=O)N1CCN(c2ccccn2)CC1 (configuration not stated),-15%
# Continuation.
SMILES,HPGD block
CCCCc1cc2c(cn1)=C(OC(=O)CCC(=O)OC)C(C)(OC(=O)CC)C(=O)C=2 (configuration not stated),-6%
CCC12C(=O)C(CC)(C(c3ccccc3)=C1c1ccccc1)[C@@H]1C(=O)N(c3ccc(C)cc3)C(=O)C12 (some centres not stated),-9%
COc1ccc(/C=C/C=N/NC(=O)COc2ccc(OC)cc2)cc1,-10%
CC(OC(=O)c1ccc2c(=O)n3c(nc2c1)CCCCC3)C(=O)Nc1ccc(F)cc1Cl (configuration not stated),-18%
Cc1ccccc1N1C(S)=C(C#N)C(=O)NC12CCCCC2,-16%
CCOC(=O)C1=C(N)OC2=C(C(=O)CCC2)C1c1ccco1 (configuration not stated),-8%
Cc1ncc[nH]1,-12%
Cc1ccc(-c2cc(C(=O)Nc3c(C)n(C)n(-c4ccccc4)c3=O)[nH]n2)c(O)c1,-9%
Oc1c(CN2CCN(c3ccccc3)CC2)cc(Br)c2cccnc12,-8%
Nc1ccc([N+](=O)[O-])cc1O,-10%
CCCC(=O)O[C@@H]1C[C@@H](C)N(C(=O)c2ccccc2)c2ccc(C)cc21,-11%
COc1ccc(OCC(=O)Nc2sc3c(c2C(=O)NCC2CCCO2)CCC3)cc1 (configuration not stated),-26%
CCS(=O)(=O)N1CCC(NC(=O)c2ccco2)CC1,3%
N/C(Cc1ccc([N+](=O)[O-])cc1)=N\OC(=O)c1ccc([N+](=O)[O-])cc1,-5%
COc1ccc(C2OC3C(CO)OC(n4cnc5c(=O)[nH]c(N)nc54)C3O2)cc1 (configuration not stated),16µM*
COC(=O)CN1C(=O)C2(OCCCO2)c2ccccc21,-8%
CCCSC1=C(C#N)C(c2ccccc2C)C(C(=O)OC)C(=O)N1 (configuration not stated),-9%
O=C(O)c1cccc2[nH]c(C(F)(F)F)nc12,?
O=[N+]([O-])c1ccc(-c2nc(-c3ccc(F)cc3)c(-c3ccncc3)[nH]2)cc1,-28%
Cn1c(SCC(=O)N/N=C/c2cccs2)nc2ccccc21,-7%
N#CCc1ccc(NS(=O)(=O)c2ccc(N3CCCC3=O)cc2)cc1,-5%
Cc1cc(C)c2nc(NC(=O)c3ccc4c(c3)OCO4)sc2c1,?
CCC(C)NC(=O)CCc1nc2ccccc2n1-c1ccccc1 (configuration not stated),0%

# In a second layout: results already given
structure: CC[C@H]1C2=C3C(CC[C@H]4C(OC)OC[C@](C)([C@@H]34)N(C(=O)OC(C)(C)C)C2)C(CO)C1CO (some centres not stated)
- HPGD block: -3%
structure: Cc1ccccc1-n1nc(-c2ccc(N)cc2)cc1N
- HPGD block: -5%
